TRPML1 agonist: activates the human TRPML1 channel | Q9GZU1 | actives 0.12% (n = 410,000) | TRPML1-expressing cells, Ca2+ dye fluorescence, FDSS; host cell line not named in the record; reference of the full effect not given here | activation, % (test concentration not listed); in the data active = activation above about 50%; inconclusive = about 30% to 50%; inactive = below about 30%; further: 0% is about no effect; the text of the record puts the active cut at 80%
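Kinetic FDSS Ca2+ read in Tet-induced TRPML1-DL cells (ABD Ca8 dye plus quencher, 45-90 min RT loading): baseline, then compound, then 110 s agonist window; EC80 agonist 54-4 at 4uM final added afterwards for a 110 s antagonist window.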
Sfp PPTase inh: Sfp phosphopantetheinyl transferase inhibition | Q9F4F7 | actives 3.5% (n = 310,000) | Potency, µM, for inactives: max response, negative = inhibition, actives largely listed as inhibitors | Biochemical Sfp PPTase activity, qHTS; active means well fitted inhibition curve with a large enough effect; inconclusive means small, poorly fitted or top-dose-only effect, or another doubt; inactive means no such curve, though single readings can be large or run the other way;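 further: the enzyme is Sfp with the accession as filed and its product quenches rhodamine fluorescence; potency means the concentration at half of the fitted maximal effect; 0% = enzyme reaction without inhibitor and -100% = no enzyme wells; top concentration of the series not given in the record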
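Compounds were incubated with enzyme (final 15 nM) for 15 min at room temperature before substrate addition started the reaction. Fluorescence at 525 nm excitation, 598 nm emission was recorded immediately and after 30 minutes.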
TRPML1 inh: inhibitors of human TRPML1 channel; actives 0.02% (n = 390,000); TRPML1-inducible cells, Ca2+ dye fluorescence, FDSS; stronger effect = lower value; inhibition of EC80 agonist-evoked calcium signal; AID 624415; activity change, negative = inhibition, % (concentration not given with the values); in the data active means activity change below about -50%; inconclusive means about -30% to -50%; inactive means above about -30%;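 further: stimulus is agonist 54-4 at its EC80 concentration; on the % scale 0 is the no-effect control and ±100 the full control effect; compound concentration not given in the record; the text of the record puts the active cut at -80%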
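TRPML1-DL cells, Tet-induced overnight (~16 h, 37 °C) at 1,500 cells/well, were loaded with Ca8 no-wash dye plus quencher for 45-90 min at room temperature. Compounds were pinned during FDSS kinetic reading; agonist 54-4 at EC80 (4 uM final) then added.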
ClpP mod: qHTS Assay for Activators of ClpP; ATP-dependent Clp protease proteolytic subunit (Bacillus subtilis (strain 168)), P80244; purified B. subtilis ClpP, FRET peptide cleavage, 20 min; Potency, µM (highest dose often 57.5 µM), for inactives: at the top dose activity change, negative = active; actives 1.9% (n = 340,000); AID 651965, 2013; active = well fitted falling curve with a large enough effect; inconclusive = small, poorly fitted or top-dose-only effect; inactive = no such curve, though single readings can be large or run the other way; further: potency means the concentration at half of the fitted maximal effect; the source files actives as falling curves though it sought activators and does not explain the sign; nearly all actives have a fitted effect of over 65% in size; many hits overshoot -100%
Target sequence (P80244 whole entry, looked up): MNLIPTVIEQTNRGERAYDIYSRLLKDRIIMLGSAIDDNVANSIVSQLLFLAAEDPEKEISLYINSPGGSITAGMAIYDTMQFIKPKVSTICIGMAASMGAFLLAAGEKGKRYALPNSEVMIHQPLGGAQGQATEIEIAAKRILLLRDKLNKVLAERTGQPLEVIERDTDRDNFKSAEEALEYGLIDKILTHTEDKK
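FRET quenching reversal measured ClpP activation: 10 microg/mL B. subtilis ClpP at pH 8 with the FRET-FV decapeptide, read at 430 nm after 320 nm excitation. The 20-min minus 0-min signal was scaled between DMSO/no-enzyme wells and ADEP (5.8 microM final).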
Menin MLL FP FL: inhibitors of human menin-MLL interaction, wild-type MLL peptide; 290,000 tested, under 10 active; FP activity change, % at 61.4 µM; AID 1766; Fluorescence polarization, fluorescein-MLL peptide displacement from menin; inconclusive = falling polarisation curve, or a change in total fluorescence; inactive = total fluorescence flat and polarisation flat or rising; no compound was filed as active; the % refers to the polarisation; negative = inhibition;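 further: % of control where 0% means no effect; inhibitors lower the polarisation; unlabelled MLL peptide was the positive control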
PINK1 modulator: changes PINK1 expression. AID 624263. PINK1 immunofluorescence, high-content cytometry, 24 h. actives 0.2% (n = 410,000). Potency, µM (doses to about 76.6 µM), inactives show top-dose activation (PINK1 increase), hits mostly activators; active = well fitted activation curve with a large enough effect; inconclusive = small, poorly fitted or top-dose-only effect; inactive = flat fitted curve, though single readings scatter; cell line not stated here;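 further: potency means the concentration at half of the fitted maximal effect; % of control where 0% means no effect; nearly all actives have a fitted effect of over 65% in size; a mitochondrial uncoupler was the plate control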
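Decision-based qHTS: stable cells, 24 h exposure to five compound concentrations, CCCP as control. Fixed cells stained for PINK1 plus nuclear, mitochondrial and cell markers, cytometer read.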
TRPV1 PAM: human TRPV1 potentiation; TRPV1-expressing cells, Fluo-8 calcium influx, capsaicin EC20 potentiation; host cell line not named in the record; control for the full effect not named in the record; Q8NER1; actives 0.02% (n = 320,000); AID 540277; potentiation, % at 8.33 µM; active means potentiation above 80%; inconclusive means 30% to 80%; inactive means below 30%; further: 0% is about no effect
Target sequence (Q8NER1 whole entry, looked up): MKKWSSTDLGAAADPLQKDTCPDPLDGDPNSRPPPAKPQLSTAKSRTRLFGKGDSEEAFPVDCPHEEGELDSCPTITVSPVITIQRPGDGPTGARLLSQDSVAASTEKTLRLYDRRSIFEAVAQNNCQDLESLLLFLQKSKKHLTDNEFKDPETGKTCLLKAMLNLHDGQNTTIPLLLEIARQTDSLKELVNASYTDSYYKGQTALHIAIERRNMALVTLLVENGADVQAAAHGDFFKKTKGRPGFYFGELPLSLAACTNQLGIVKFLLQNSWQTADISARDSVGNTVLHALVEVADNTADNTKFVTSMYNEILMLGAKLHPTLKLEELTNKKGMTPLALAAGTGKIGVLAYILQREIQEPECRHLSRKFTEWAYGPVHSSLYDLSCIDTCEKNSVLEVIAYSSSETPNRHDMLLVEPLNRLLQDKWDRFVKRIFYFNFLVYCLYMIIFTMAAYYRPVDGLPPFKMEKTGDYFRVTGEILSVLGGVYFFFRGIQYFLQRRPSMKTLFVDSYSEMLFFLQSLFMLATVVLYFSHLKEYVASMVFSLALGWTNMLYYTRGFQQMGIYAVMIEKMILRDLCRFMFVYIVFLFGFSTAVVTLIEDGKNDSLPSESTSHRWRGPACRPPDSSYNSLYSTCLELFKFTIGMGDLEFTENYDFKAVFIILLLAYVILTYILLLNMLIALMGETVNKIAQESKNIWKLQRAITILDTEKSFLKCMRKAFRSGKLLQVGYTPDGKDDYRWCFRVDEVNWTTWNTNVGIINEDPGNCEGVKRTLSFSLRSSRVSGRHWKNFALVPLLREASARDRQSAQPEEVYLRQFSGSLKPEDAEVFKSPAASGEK
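Cells expressing TRPV1 were dye-loaded with Fluo-8 and read kinetically: 10 s baseline, 3 min after compound (agonist portion), then 2 min after EC20 capsaicin (allosteric enhancer portion). Calcium-bound dye fluorescence at 480/520 nm.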
* = called active by the depositor; ? = inconclusive; . = no result given; [ ] = remark or other dose.

SMILES	TRPML1 agonist	Sfp PPTase inh	TRPML1 inh	ClpP mod	Menin MLL FP FL	PINK1 modulator	TRPV1 PAM
COc1ccc(NC(=O)c2cccc(N3CCCS3(=O)=O)c2)cc1OC	-0.1	.	-4	-1.2%	.	2.4%	.
Cc1cccc(CC2S/C(=N/c3cccc(C)n3)NC2=O)c1 (configuration not stated)	1.0	9%	-10	.	3.2	3.6%	11
CCc1ccc(NC(=O)CN2C(=O)CCSc3ccccc32)cc1	2.8	.	-13	0.2%	.	5.0%	.
CC(=O)c1cccc(OCc2cc(C(=O)NC(C)Cc3cccnc3)no2)c1 (configuration not stated)	-0.2	17%	-6	-0.6%	2.3	1.4%	12
COC(=O)c1cc2sccc2n1CC(=O)N(C)c1ccccc1	0.5	10%	-5	1.1%	0.5	-0.9%	23
CCOC(=O)C(C(=O)NCC1CCCO1)C1CCCCC1 (configuration not stated)	0.4	7%	-8	1.1%	-0.9	0.1%	23
O=C(NCCCN1CCCC1=O)c1cn(-c2ccccc2)nc1-c1ccccc1	0.0	18%	-7	-14%	-0.6	0.0%	-24
COCCOC1CCN(C(=O)C2CCC(=O)N(CCc3cccc(F)c3)C2)CC1 (configuration not stated)	-0.7	23%	-1	.	1.1	-0.3%	1
O=C(COc1ccccc1)Nc1c2c(nn1-c1ccc(F)cc1)CS(=O)C2 (configuration not stated)	-0.1	.	1	0.7%	.	1.0%	.
COc1cccc(C2C(C#N)=C(N)N(N(C)C)C3=C2C(=O)CCC3)c1OC (configuration not stated)	0.4	10%	-6	-0.2%	-0.3	2.6%	-16
CC(c1cccnc1)N(CCN(C)C)C(=O)Nc1ccc(Cl)c(Cl)c1 (configuration not stated)	-0.3	.	34	-0.2%	.	-0.7%	.
CCOC(=O)C1CCCN(C(=O)c2nn(-c3ccc(C)cc3)c(=O)c3c2c2ccccc2n3C)C1 (configuration not stated)	0.9	.	-1	-5.9%	.	1.0%	.
O=[N+]([O-])c1cccc(S(=O)(=O)NCC2CCCO2)c1 (configuration not stated)	-0.2	8%	-17	-2.5%	2.5	-1.6%	3
CCCCCC(=O)N1C[C@H](O)[C@@H](n2cc(-c3ccc(F)cc3)nn2)C[C@@H]1c1ccc(C)cc1	1.2	.	1	0.8%	.	2.3%	.
COc1ccc(N2CCN(C(=O)c3cc(S(=O)(=O)N4CCCCCC4)ccc3OC)CC2)cc1	0.3	.	-2	-11%	.	2.1%	-36
CCN1CCN(Cc2ccc(NC(=O)Nc3ccccc3)cc2)CC1	0.3	-2%	-12	0.3%	7.4	-0.4%	2
CC(=O)c1cccc(NC(=O)N2CCCC2C(=O)NCCc2ccccc2)c1 (configuration not stated)	-0.4	24%	22	-3.7%	-0.7	0.4%	18
COCCNC(=O)c1cccc(OC2CCN(Cc3ccccc3OC(F)F)CC2)c1	-0.4	13%	4	0.9%	-2.6	0.9%	-7
CCOC(=O)C1=C(C)N(c2ccc(Cl)cc2)C(=O)NC1c1cccc([N+](=O)[O-])c1 (configuration not stated)	0.6	8%	15	-1.3%	0.5	0.9%	-2
COc1ccc(CCNS(=O)(=O)c2ccccc2)cc1OC	-0.2	11%	-11	-0.7%	0.1	-0.4%	7
Cn1c(=O)c2c(ncn2CC(=O)NCc2cccnc2)n(C)c1=O	0.4	14%	12	1.2%	2.6	0.9%	-4
COc1ccc(CNC(=O)CCn2nc(C)c3c(C)n(-c4ccccc4)nc3c2=O)cc1OC	-1.0	.	3	-3.0%	.	-1.5%	.
O=C(/C=C/c1ccco1)Nc1ccc(N2CCCC2)cc1	0.7	1%	-4	0.6%	0.7	-0.4%	-8
Cc1cc(C)cc(NC(=S)NC(=O)C2CC2)c1	0.4	7%	-2	-2.4%	.	1.7%	-15
CC(C)C(OC(=O)c1ccco1)C(=O)NCc1ccco1 (configuration not stated)	1.5	2%	2	-4.4%	1.8	-1.4%	-4
CCOc1ccc(S(=O)(=O)Nc2ccc(Cl)cn2)c(C)c1C	0.3	0%	-4	-20%	3.6	0.6%[38.3 µM]	13
CCCCCCOC(=O)NCC(O)c1ccccc1 (configuration not stated)	0.0	13%	-2	0.0%	-0.8	-2.4%	-7
CCC(C)N=CC1=C(O)C(C(=O)OC)C(C)(C)CC1=O (configuration not stated)	-0.1	-7%	22	?	2.3	1.4%	-6
CSCCC(NC(=O)c1ccccc1Cl)C(=O)NNC(=O)c1ccccc1O (configuration not stated)	-0.3	.	21	?	.	2.4%	4
CCn1nnc(-c2ccccc2NC(=O)c2cc(OC)cc(OC)c2)n1	0.5	?	15	-1.1%	3.4	4.7%[38.3 µM]	-11

Filtered by structure, the compounds so far with a nitro group on carbon
SMILES	TRPML1 agonist	Sfp PPTase inh	TRPML1 inh	ClpP mod	Menin MLL FP FL	PINK1 modulator	TRPV1 PAM
O=[N+]([O-])c1cccc(S(=O)(=O)NCC2CCCO2)c1 (configuration not stated)	-0.2	8%	-17	-2.5%	2.5	-1.6%	3
CCOC(=O)C1=C(C)N(c2ccc(Cl)cc2)C(=O)NC1c1cccc([N+](=O)[O-])c1 (configuration not stated)	0.6	8%	15	-1.3%	0.5	0.9%	-2

Filtered by structure, the entries above with a furan ring, fused or not
SMILES	TRPML1 agonist	Sfp PPTase inh	TRPML1 inh	ClpP mod	Menin MLL FP FL	PINK1 modulator	TRPV1 PAM
O=C(/C=C/c1ccco1)Nc1ccc(N2CCCC2)cc1	0.7	1%	-4	0.6%	0.7	-0.4%	-8
CC(C)C(OC(=O)c1ccco1)C(=O)NCc1ccco1 (configuration not stated)	1.5	2%	2	-4.4%	1.8	-1.4%	-4

Further structures.
SMILES	TRPML1 agonist	Sfp PPTase inh	TRPML1 inh	ClpP mod	Menin MLL FP FL	PINK1 modulator	TRPV1 PAM
Cc1[nH]c2ccccc2c1C(O)CN1CCN(c2cccc(C(F)(F)F)c2)CC1 (configuration not stated)	2.7	-19%	5	-3.0%	10	-1.1%	3
CCN(Cc1ccccc1)S(=O)(=O)CCNC(=O)c1ccc(OC)cc1	-1.1	.	-7	.	.	3.1%	2
O=C(CSc1nc2ccccc2c(=O)[nH]1)Nc1ccccc1N1CCOCC1	1.2	0%	-14	-0.4%	1.0	1.0%	11
CCN1C(=O)[C@@H]2[C@H](C1=O)[C@@H]1C(=O)Nc3ccccc3C(=O)N1[C@@H]2c1cccc(C)c1	0.3	.	-18	-1.3%	.	0.3%	?
COc1ccc(N(Cc2cc3cccc(C)c3[nH]c2=O)C(=O)c2cccc(Cl)c2)cc1	-0.5	.	-4	?	.	-1.4%	.
CC/C(=N/NC(=O)c1ccc2c(c1)OCO2)c1ccccc1O	-1.0	.	-6	24%	.	1.5%	.
Fc1cc(F)c(F)c(SCCc2ccncc2)c1F	1.5	?	4	-3.1%	-6.1	3.0%	17
Cn1c(=O)c2c(ncn2CC(=O)OCc2ccccc2)n(C)c1=O	-0.7	6%	5	1.3%	1.8	3.2%	8
Cc1cc(C)cc(OCCCn2c(CCNC(=O)C3CCCCC3)nc3ccccc32)c1	3.7	.	26	1.6%	.	1.9%	-11
CSc1ncccc1C(=O)OC(C)C(=O)Nc1ccc2c(c1)OCCO2 (configuration not stated)	-1.0	.	16	2.0%	.	2.0%	.
O=C(c1cc(-c2ccccc2O)on1)N1CCCC1	-0.7	15%	5	0.2%	2.0	1.5%	.
CCC(=O)N1CCN(c2cc(NCC3CCCO3)c(F)cc2[N+](=O)[O-])CC1 (configuration not stated)	0.1	7%	-3	.	-9.6	2.4%	-5
CC(NC(=O)Cn1nc(C(F)(F)F)c2c1CCC2)c1ccccc1 (configuration not stated)	-0.6	2%	-2	0.5%	1.6	-1.9%	-17
Cc1onc(-c2ccccc2)c1C(=O)NCc1ccccn1	-0.1	14%	1	0.2%	0.8	-0.4%	3
CNC(=O)c1cccc(N2CCCC2=O)c1	3.0	-6%	0	-2.4%	-1.7	-2.2%	10
CCCC(NS(=O)(=O)c1ccc(-c2ccc(=O)[nH]n2)s1)c1cccs1 (configuration not stated)	-0.5	1%	10	.	.	1.4%	-5
Cc1ccc(-c2cc(C(=O)N3CCc4ccccc4C3)no2)cc1	5.2	-28%	25	-0.1%	3.3	3.1%	-2
CCc1noc(C)c1C(=O)NNC(=O)c1ccc(Br)cc1	-0.8	.	0	?	.	3.7%	2
O=C(COc1ccccc1)N1CCN(C(=O)c2cccc(F)c2)CC1	-0.1	13%	-16	-2.3%	-1.0	1.4%	4
O=C(CNC(=O)c1ccccc1F)OCc1cc(=O)n2ccsc2n1	-1.0	.	-19	-23%	.	0.1%	.
COc1ccc(S(=O)(=O)N2CCN(C(=O)COc3ccc4c(C)cc(=O)oc4c3)CC2)cc1	-0.9	13%	6	22µM*	1.9	-0.4%	9
O=C(/C=C/Nc1ccccc1O)c1ccco1	1.5	8%	9	.	16	0.4%	3
CCCNC(=O)C1(C)CCN(C(=O)COCc2ccccc2)C1 (configuration not stated)	-0.3	.	.	2.1%	.	4.2%	.
Cc1ccccc1C(=O)Nc1cccc(NC(=O)c2ccc(F)cc2)c1	0.4	11%	-8	.	0.6	1.4%	-5
Cc1ccc(C(=O)NCC(=O)NCC(=O)OCC(=O)c2cccs2)cc1	0.3	32%[activator]	12	0.8%	4.2	-0.6%	8
COC(=O)c1cc(NC(=O)C2C3C=CC(C3)C2C(=O)O)cc(C(=O)OC)c1 (configuration not stated)	-0.2	14%	-1	-16%	1.9	0.6%[38.3 µM]	-3
CN(CC(=O)Nc1ccc(Cl)cc1)C(=O)COc1ncnc2ccccc12	-0.5	.	2	-0.9%	.	4.6%	-1
Cc1ccc(S(=O)(=O)N2CCOCC2)cc1NC(=O)CN1CCC(Cc2ccccc2)CC1	0.1	?	33	.	-0.7	2.5%	11
CCCN(CCC)C1CC(=O)N(Cc2ccccc2)C1=O (configuration not stated)	-1.5	?	6	1.8%	2.8	0.3%	17
O=C(CN1CCN(S(=O)(=O)c2ccc3c(c2)OCCO3)CC1)Nc1cccc(F)c1	1.7	.	-15	.	.	-0.6%	25
CCCC(=O)Nc1nc2ccc(NC(=O)c3cccnc3)cc2s1	0.1	19%	-4	-0.3%	0.6	16%[38.3 µM]	25
CC(=O)Oc1ccc(C(=O)COC(=O)CNC(=O)COc2ccccc2C)cc1	-0.4	.	.	-5.4%	.	1.6%	.
CCOC(=O)c1c(C)oc2nc(C)nc(NCC3CCN(Cc4ccc(Cl)cc4)CC3)c12	-0.5	.	17	0.9%	.	1.5%	.
CSc1cc(SC)ncn1	0.3	.	-17	-4.4%	.	2.1%	.
